From PubChem BioAssay
VDR inh: inhibitors of human vitamin D receptor; VDR-SRC2-3 peptide fluorescence polarization, 2 h; Potency, µM, without a hit: max response, negative = inhibition, usual class: inhibitors; 400,000 tested, 0.93% active; active = well fitted inhibition curve with a large enough effect; inconclusive = small, poorly fitted or top-dose-only effect, or another doubt; inactive = no such curve, though single readings can be large or run the other way; note: series mostly up to about 120 µM
Target sequence (P11473 whole entry, looked up): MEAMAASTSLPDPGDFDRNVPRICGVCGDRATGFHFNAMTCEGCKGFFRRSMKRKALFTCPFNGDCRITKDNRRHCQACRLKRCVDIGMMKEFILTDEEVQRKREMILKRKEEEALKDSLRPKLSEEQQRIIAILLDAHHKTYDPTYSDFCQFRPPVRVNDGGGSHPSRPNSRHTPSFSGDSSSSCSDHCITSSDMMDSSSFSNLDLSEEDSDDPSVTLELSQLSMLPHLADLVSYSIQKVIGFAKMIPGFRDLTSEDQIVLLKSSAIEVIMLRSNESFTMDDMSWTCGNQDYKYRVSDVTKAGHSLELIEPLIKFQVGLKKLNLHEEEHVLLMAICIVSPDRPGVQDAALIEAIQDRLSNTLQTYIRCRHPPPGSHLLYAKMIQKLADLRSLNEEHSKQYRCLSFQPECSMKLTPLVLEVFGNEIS
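Fluorescence polarization assay measuring small-molecule disruption of VDR binding to the coregulator peptide SRC2-3. Compounds were pin-transferred (23 nl) into the reagent mix and incubated 2 h at room temperature before reading.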
Active calls of the source: *; ? = inconclusive; & = joins results of further samples; [ ] = remark or other dose. % is set by controls: 0 for no effect and ±100 for the full control effect; potency is the fitted concentration of half-maximal effect.

SMILES | VDR inh
CN(C)C(=O)c1ccc(-c2cncnc2NCc2ccccc2)cc1 | ?
CC(=O)COc1ncnc2c(Cl)cc(Cl)cc12 | -8%
O/N=C1/CCSc2ccccc21 | 4%
Cc1nn2c(=O)cc(COC(=O)CNC(=O)c3ccc(F)cc3)nc2s1 | 7%
CC(=O)N1CCN=C1SCc1cccc(C(F)(F)F)c1 | 4%
O=C(c1c(F)cccc1F)N1CCN=C1SCc1ccccc1 | 20%
CN(Cc1ccccc1)C(=O)C1CCC(CNS(=O)(=O)c2ccc3c(c2)CCCC(=O)N3)CC1 (centres undefined) | 3%
CC(=O)Nc1ccc(NC(=O)CSc2ccc3nnc(-c4cccnc4)n3n2)cc1 | 21%
CCc1nc(C)cc2c1sc1ccccc12 | -14%
CCC1CCCCN1C(=O)c1c[nH]c2ccc(S(=O)(=O)N(C)c3ccc(Cl)cc3)cc2c1=O (centres undefined) | 0%
CCOc1ccccc1NC(=O)C(OC(=O)c1ccc(N(C)C)cc1)c1ccccc1 (centres undefined) | 2%
CCOc1ccccc1NS(=O)(=O)c1c(C)nc2sccn2c1=O | 3%
COC(=O)N1CCC2(CCN(Cc3ccccc3)CC2)CC1 | -2%
Cc1cc(C)c2nc(Cl)c(Cl)nc2c1 | 25%
Clc1ccc2c(c1)Nc1ccccc1CC2 | -8%
CC(NC(=O)C1CCC(CNS(=O)(=O)c2ccccc2)CC1)c1ccccc1 (centres undefined) | -1%
O=C(O)COc1ccccc1/C=C1\C(=O)Nc2ccc(Br)cc21 | ?
N=c1ccn(Cc2ccc(F)cc2)cc1 | 4%
CC1CCN(C(=O)CCCN2C(=O)c3cccnc3Oc3ccc(Cl)cc32)CC1 | -29%
Cc1ccc(S(=O)(=O)N/N=C/c2ccc(OCC(=O)Nc3ccccc3Cl)cc2)cc1 | -7%
CN(C)C(=S)Nc1ccc(Br)c(Cl)c1 | -12%
COCCCNc1nc2c(-c3cccc(Br)c3)nnn2c2ccccc12 | -8%
CCc1ccccc1N1CC(c2nc3ccccc3n2Cc2cccc(C)c2)CC1=O (centres undefined) | 9%
c1cncc(-c2nc(NCCCN3CCOCC3)c3c4c(sc3n2)CCC4)c1 | -2%
N=C1/C(=C/c2ccco2)C(=O)N=C2SC(CC(=O)N3CCCC3)=NN12 | -14%
Cc1cc(C)cc(NC(=O)C(OC(=O)c2sccc2C)c2ccccc2)c1 (centres undefined) | -20%
Cc1ccc2cc3c(N)c(C(=O)N4CCOCC4)sc3nc2c1 | 3%
COc1cccc2c1cc1c(=O)n(CC(=O)NCCCN3CCN(C)CC3)nc(C)n12 | 4%&10%
O=C(Nc1ccccc1)N1CCCC2(CCN(C(=O)c3cc(C(F)(F)F)cc(C(F)(F)F)c3)CC2)C1 | 7%
CCn1c(O)c(C=NC2CCCC(C)C2C)sc1=S (centres undefined) | 22%
Cc1ccc(C(=O)CC2(O)C(=O)N(CCc3ccccc3)c3ccc(Br)cc32)o1 (centres undefined) | -12%
CC[C@H](C)[C@H]1CNC(=O)C(=O)N1CC1CCN(CCc2ccccc2)CC1 | -2%
COc1cc(C(=O)Nc2nnc(CC(=O)NCc3ccccc3)s2)cc(OC)c1OC | -10%
C#CCOCCOCCOCCNc1nc(N2CCN(C(=O)[C@H]([C@@H](C)CC)n3cc([C@@H](N)CC(C)C)nn3)CC2)nc(N2CCN(C(=O)[C@H]([C@@H](C)CC)n3cc([C@@H](N)CC(C)C)nn3)CC2)n1 | -4%
O=S(=O)(c1cnccc1N1CCN(/N=C/c2ccc(Cl)cc2)CC1)N1CCCCC1 | 5%
CCN1CCN(CCCOc2ccc(-c3ccccc3)cc2)CC1 | 1%
C=CCC[C@@H](Cc1ccc(F)cc1)C(=O)OC[C@H]1CCCN1C(=O)[C@@H](CC=C)CC(=O)N[C@H](CO)Cc1ccccc1 | -11%
O=C1C=C(N2CCOCC2)CO1 | -6%
CC1(C(=O)O)CCC(C(=O)NC2CCCCC2)C1(C)C (centres undefined) | 5%
Cc1ccc(C)c2sc(NC(=O)C3CC3)nc12 | -10%
CCCOc1ccc(-c2c(C(=O)N/N=C(\C)COc3ccccc3)nnn2-c2nonc2N)cc1 | 2%
CCC(Sc1nnc(-c2ccc(OC)cc2)c(-c2ccc(OC)cc2)n1)C(=O)Nc1cccc(OC)c1 (centres undefined) | 10%
COc1cc(Cl)c(C)cc1NC(=O)CN1c2ccccc2S(=O)(=O)c2ccccc21 | 1%
O=C(COC(=O)CNC(=O)c1sc2ccccc2c1Cl)NC1CCS(=O)(=O)C1 (centres undefined) | -10%
CCC1CCC/C1=N\NC(=O)c1ccc(Cl)cc1 (centres undefined) | -15%
Cc1nn2c(Nc3ccccc3)c3c(nc2c1-c1ccccc1)CCC3 | -5%
COC(=O)CCN1CCN(S(=O)(=O)c2ccccc2Br)CC1 | -2%
CCN1C(=O)[C@@H]2Cc3c([nH]c4ccccc34)C(c3ccc(OC)cc3)N2C1=S (some centres undefined) | -13%
COc1ccc(NC(=O)C23CC4CC(C2)CC(n2cnc(Br)n2)(C4)C3)cc1Cl | -6%
C=CCn1c(=O)[nH]c2cc(C(=O)N3CCN(c4ccc(C(C)=O)cc4)CC3)ccc2c1=O | -8%

Part of the list above in order of number of heavy atoms, low to high:
SMILES | VDR inh
CCN1C(=O)[C@@H]2Cc3c([nH]c4ccccc34)C(c3ccc(OC)cc3)N2C1=S (some centres undefined) | -13%
C=CCn1c(=O)[nH]c2cc(C(=O)N3CCN(c4ccc(C(C)=O)cc4)CC3)ccc2c1=O | -8%
CCC(Sc1nnc(-c2ccc(OC)cc2)c(-c2ccc(OC)cc2)n1)C(=O)Nc1cccc(OC)c1 (centres undefined) | 10%

(next part)
SMILES | VDR inh
Cc1noc(NS(=O)(=O)c2ccc(NC(=O)c3ccc(N(C)C)cc3)cc2)c1C | -16%
COc1cc(C(=O)NCC(=O)NCCCSc2ccccc2)cc(OC)c1OC | -5%
Cc1ccc(S(=O)(=O)N2CCOCC2)cc1NC(=O)c1cc(-c2ccccn2)nc2ccccc12 | -5%
Cc1ccc(Nc2nc(N/N=C\c3ccc4c(c3)OCO4)nc(N3CCOCC3)n2)cc1 | -2%
COC(=O)CSc1snnc1-c1ccc(F)cc1 | 2%
CCc1ccccc1NC(=O)c1cc(-c2cccs2)on1 | 2%
CC(=O)Nc1cccc(C(=O)NCc2ccc3c(c2)CCN3C(=O)c2ccc(F)cc2)c1 | 10%
CCOC(=O)N1CCc2c(sc3c2c(=O)n(Cc2ccccc2)c(=O)n3Cc2cccc(C)c2)C1 | ?
COc1ccc(CNS(=O)(=O)c2ccc(-c3cnc(C4CC4)o3)cc2)cc1 | -6%&12%
CC(OC(=O)C1CCCC1)C(=O)Nc1ccc(C(N)=O)cc1 (centres undefined) | 17%
Cc1ccccc1-c1nc(N2CCOCC2)c2ccccc2n1 | 26%
Nc1nc(-c2ccc(Cl)cc2)nn1C(=O)c1ccco1 | -25%
O=C(NCc1ccncc1)/C(=C\c1ccc(F)cc1)NC(=O)c1ccccc1 | -25%
O=C(NC1CC(=O)N(c2cccc(F)c2)C1)C(c1ccccc1)c1ccccc1 (centres undefined) | 7%
Cc1csc(CNc2ncnc3ccc(-c4ccoc4)cc23)c1 | -3%
COc1cc(/C=N/Nc2ccc(F)cc2F)cc(OC)c1O | -23%
Cc1nn(C)c(C)c1CN(C(=O)C1CCC(=O)N(C2CCCCCC2)C1)C(C)C (centres undefined) | 3%
CC(=O)NCCn1c(SCc2cccc([N+](=O)[O-])c2)nc2ccccc2c1=O | 1%
O=C(NCCNCc1ccc(F)cc1)c1ccco1 | 4%
CC(C)n1c(C(F)(F)F)nc2cc(C(=O)N3CCC(O)CC3)ccc21 | 37%[activator]

4 records drawn at random from those above:
SMILES | VDR inh
Cc1ccccc1-c1nc(N2CCOCC2)c2ccccc2n1 | 26%
Cc1csc(CNc2ncnc3ccc(-c4ccoc4)cc23)c1 | -3%
O=C(NC1CC(=O)N(c2cccc(F)c2)C1)C(c1ccccc1)c1ccccc1 (centres undefined) | 7%
COc1cc(/C=N/Nc2ccc(F)cc2F)cc(OC)c1O | -23%

The list goes on.
SMILES | VDR inh
CCCn1c(C(O)c2ccc(OC)c(OC)c2)nc2ccccc21 (centres undefined) | -8%
CC(=O)c1cc(C)ccc1OC(=O)c1cccnc1 | -2%
COC(=O)/C(C#N)=C/c1occc1C | -14%
COCCn1c(=S)[nH]c2cc(C(=O)N3CCN(Cc4ccc5c(c4)OCO5)CC3)ccc2c1=O | 14%
O=C(Cn1nc(C(F)(F)F)c2c1CCC2)NCc1ccc(Cl)cc1 | 15%
CCCCN1C(=O)c2[nH]nc(-c3ccccc3O)c2C1c1ccc(C(C)(C)C)cc1 (centres undefined) | 14%
CC(C)C[C@@H](CO)N1CCN(Cc2ccc(O)cc2)CCC1=O | -1%
Cc1cccc(NC(=O)Nc2nnc(N(C)Cc3ccccc3)s2)c1 | 14%
Cc1ccccc1CSCC(=O)NCc1ccco1 | -6%
O=C(COc1ccccc1[N+](=O)[O-])NCC1(N2CCOCC2)CCCCC1 | 5%

An excerpt of these results, with values ahead of the structure.
VDR inh,SMILES
-6%,Cc1ccccc1CSCC(=O)NCc1ccco1
-1%,CC(C)C[C@@H](CO)N1CCN(Cc2ccc(O)cc2)CCC1=O

Next part
SMILES | VDR inh
CCOc1ccccc1NC(=O)c1cc(S(=O)(=O)N2CCOCC2)cn1C | 3%
COc1ccc(C(=O)CC(=O)C(=O)Nc2cc([N+](=O)[O-])ccc2OC)cc1 | -14%
CN(C)C(=O)CS(=O)(=O)c1ccc(Cl)cc1 | -9%
CCN1CCCC1CNC(=O)c1[nH]c2ccc(OC)cc2c1C (centres undefined) | 8%
COc1ccccc1NS(=O)(=O)c1cccc(C(=O)N/N=C(\C)c2ccc3c(c2)OCCO3)c1 | 8%
Cc1ccc(SCC(=O)O/N=C(\N)c2cccnc2)cc1 | -6%
CC(C(=O)Nc1ccc(F)c(F)c1F)N1CCCCCC1 (centres undefined) | -4%
O=S(=O)(CCc1ccccc1)c1nnnn1-c1ccc(F)cc1Br | ?
O=C(N/N=C(\Cc1ncc[nH]1)c1ccccc1)c1ccncc1 | -12%
CN(C)c1ccc(Sc2nnc(NC(=O)Nc3ccc(Cl)cc3Cl)s2)cc1 | -12%
COc1ccc(-c2nc(CNS(=O)(=O)c3cc(OC)ccc3OC)cs2)cc1 | -5%
CCCN(CC(=O)Nc1ccccc1C)C(=O)CCN1C(=O)c2cccc([N+](=O)[O-])c2C1=O | 10%
Cc1sc2ncnc(N3CCC(C(=O)Nc4nc(-c5ccc(F)cc5)cs4)CC3)c2c1C | -19%
CC12c3ccccc3C(c3ccccc31)C1C(=O)N(c3cccnc3)C(=O)C12 (centres undefined) | -6%
O=C(CN1C(=O)C(=O)N(C2CCCC2)C1=O)Nc1ccc(N2CCOCC2)cc1 | -6%
COc1ccc(CCC(=O)N2CCc3ccccc32)cc1 | -11%
COc1ccc([N+](=O)[O-])cc1N(CC(=O)N1CCCC1)S(C)(=O)=O | 16%
Cc1ccc(C)c(OCCCCN2CCCCC2)c1 | 6%
Cc1ccc(C)c(S(=O)(=O)Nc2nc3ccc(S(N)(=O)=O)cc3s2)c1 | -15%
OCc1ccccc1O[C@H]1OC(CO)C(O)C(O)C1O (some centres undefined) | -3%
O=c1cc(O)n(-c2ccccc2)c(=S)[nH]1 | -22%
CC(C)(C)NC(=S)NNC(=O)c1ccccc1Cl | ?
Cc1ccc(Sc2c(C)nn(-c3ccccc3)c2OC(=O)C(C)(C)C)cc1 | ?
CN1C(=O)Cc2cc(S(=O)(=O)Nc3ccc(N4CCOCC4)cc3)ccc21 | 2%
CCn1c(=O)c2sccc2n(CC(=O)NC2CCCC2)c1=O | -5%
Cc1cccc2cc(C3CC(c4cccs4)=NN3S(C)(=O)=O)c(Cl)nc12 (centres undefined) | -1%
Cc1ccc2sc(NC(=O)c3ccc(N4C(=O)CCC4=O)cc3)nc2c1C | -12%
CC(C)CN(C(=O)COC(=O)c1ccc([N+](=O)[O-])o1)C1CCS(=O)(=O)C1 (centres undefined) | -4%
Cc1ccc(N2CC(C)Cn3c2nc2c3c(=O)n(Cc3cccc(Cl)c3)c(=O)n2C)cc1 (centres undefined) | 24%
O=C(Nc1nc(-c2ccccn2)cs1)C12CC3CC(CC(O)(C3)C1)C2 | 15%
O=C(/C=C/c1cccc(F)c1)NNC(=O)c1ccncc1 | 3%
Cc1nc(SCC(=O)Nc2cc(C)on2)c2c(C)c(C)sc2n1 | 8%
CN(C)S(=O)(=O)c1ccc(C(=O)NCCSc2c(-c3ccc(Br)cc3)[nH]c3ccccc23)cc1 | -18%
CC(C)(C)C(=O)Nc1ccc(S(=O)(=O)NC2=NCCCCC2)cc1 | 0%
CC(=O)Nc1ccc(NC(=O)CNC(=O)c2sc3ccccc3c2Cl)cc1 | 4%
C[C@@H](O)[C@@H]1NC(=O)[C@H](CCCCN)NC(=O)[C@H](Cc2c[nH]c3ccccc23)NC(=O)[C@H](Cc2ccccc2)NC(=O)[C@H](Cc2ccccc2)NC(=O)[C@H](CC(N)=O)NC(=O)[C@H](CCCCN)NC(=O)[C@@H](NC(=O)[C@@H]2CCCN2)CSSC[C@@H](C(=O)N[C@@H](CCCCN)C(=O)O)NC(=O)[C@H](CO)NC(=O)[C@H](CO)NC(=O)[C@H](Cc2ccccc2)NC1=O | ?
COc1cc2c(cc1OC)CN(CCOc1ccc(Br)cc1)CC2 | -5%
FC(F)(F)c1cccc(NC(=S)Nc2cccc(Cl)c2)c1 | 14%
Cc1ccccc1OCC(=O)NCC(c1ccco1)N1CCCCC1 (centres undefined) | 3%
O=C(Nc1ccc(S(=O)(=O)NC2=NCCCCC2)cc1)c1ccc(=O)[nH]c1 | ?
CC1CCCC(NC(=O)c2nn(C)c3c2CS(=O)(=O)c2ccccc2-3)C1C (centres undefined) | -14%

Not all compounds are listed; count on the stated rates, not on these rows.
